HSD17B inh – HSD17B dehydrogenase inhibition; AID 893; 75,000 compounds, 7.6% hits; recombinant HSD17B10, NADH fluorescence kinetic; many of its hits are not listed in these tables; Potency, µM (titrated, usually from 57.1 µM), for inactives: top-dose activity change, negative = inhibition, hits mostly inhibitors; Q99714; active = well fitted inhibition curve with a large enough effect; inconclusive = small, poorly fitted or top-dose-only effect; inactive = no such curve, though single readings can be large or run the other way;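 note: the protocol describes HADH2 (HSD17B10) and not the HSD17B4 of the title; nearly all actives have a fitted effect of over 70% in size; most hits overshoot -100% by far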
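Enzyme plus compound, 15 min room temperature; substrate mix added (NAD+ 1 mM, beta-hydroxybutyryl-CoA 90 uM final); plates read kinetically for NADH fluorescence. HADH2 was His-tagged, E. coli-derived, 20 nM.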
* marks the source's active call; other numbers are inactive results; ? = inconclusive; & = joins results of further samples; [ ] = remark or other dose. % is set by controls: 0 for no effect and ±100 for the full control effect; potency is the fitted concentration of half-maximal effect.

nr	Molecule	HSD17B inh
1	COc1cc2[nH]c(=O)n(CCC(=O)N3CCN(c4cc(Cl)ccc4C)CC3)c(=O)c2cc1OC	-18.8%
2	C[C@H](N)C(=O)OC(C)(C)Cc1ccc(Cl)cc1	3.4%
3	CCOC(=O)Nc1ccc(C)cc1Br	4.7%
4	CC1=CS/C(=C(/C#N)C(=O)N2CCOCC2)N1c1ccccc1	-3.4%
5	CCOC(=O)N1CCN(Cc2c(F)cccc2Cl)CC1	-3.1%
6	O=S(=O)(c1ccccc1)c1nc(-c2ccccc2)oc1NCc1cccnc1	-7.2%
7	CCn1cc(C(=O)NCCN(C)CCc2ccccc2)c(=O)c2cc(S(=O)(=O)N(C)C)ccc21	-28.4%
8	CCC(=O)Nc1ccc(NC(=O)C23CC4CC(CC(C4)C2)C3)cn1	4.5%
9	COc1ccc(NC(=O)Nc2nnc(N3CCCCC3C)s2)cc1OC (stereo not drawn)	0.2%
10	COCc1cc(C)nc2sc3c(=O)n(Cc4ccco4)nnc3c12	3.8%
11	O=c1o[nH]c(-c2ccccc2)c1C1=NCCCCC1	1.6%
12	CC(C)(Oc1ccc(Cl)cc1)C(=O)NCc1ccco1	-18.2%
13	CCN(CC)CC(O)Cn1c2ccccc2c2ccccc21 (stereo not drawn)	4.8%
14	c1cncc(-c2nnc(C3CCCCC3)o2)c1	-2.2%
15	O=C(CCN1c2ccccc2Sc2ccccc21)OCc1nnc(-c2ccccc2)o1	?
16	Cc1nc(CSc2nnc3scc(-c4ccc(Cl)cc4)n23)cs1	7.0%
17	CCOC(=O)c1[nH]c(C)c(/C(O)=C2\C(=O)C(=O)N(CCN(C)C)C2c2cccc(OC)c2OC)c1C (stereo not drawn)	2.6%
18	COc1cc(O)c2c(=O)c(O)c(-c3ccc(O)c(O)c3)oc2c1	?
19	Cc1cc(C)c2c(=O)n(CC(=O)NCCCN3CCOCC3)sc2n1	15.8µM*
20	Cc1ccccc1S(=O)(=O)Cc1ccc(C(=O)N2CCN(C3CCCCC3)CC2)o1	2.3%
21	Cc1cc(C)cc(CC2CC(=O)N(c3ccc4c(c3)OCCO4)C2=O)c1 (stereo not drawn)	7.5%
22	Cn1c(=O)cc(OCCCC(=O)NC2CCCC2)c2ccccc21	7.4%
23	COc1ccc(OC)c(C(=O)COC(=O)C2CC3CCCC(C2)C3=O)c1 (stereo not drawn)	5.1%
24	Nc1ccc(-c2nnc(-c3ccc(-c4ccccc4)cc3)o2)cc1	5.01µM*
25	O=C(CSCc1ccc(Cl)cc1)NCC1CCCO1 (stereo not drawn)	6.7%
26	O=C(c1cc2ccccc2oc1=O)N(Cc1ccco1)CC1CCCO1 (stereo not drawn)	-1.9%
27	COc1cccc(C(=O)Nc2ccc(-c3nc4ccccc4o3)c(O)c2)c1	31.6µM*
28	Cc1ccccc1C1=NC(c2ccc(F)cc2F)ON1 (stereo not drawn)	?
29	O=C(NCc1cccnc1)c1ccc(CS(=O)(=O)c2ccc(Br)cc2)o1	13.8%
30	C=CCNC(=O)COc1ccc(Br)cc1Cl	11.4%
31	COc1ccccc1N1CCN(C(=O)CCCn2c(=O)[nH]c3ccsc3c2=O)CC1	8.0%
32	COc1ccc(S(=O)(=O)N(CC(=O)N2CCOCC2)c2cc(Cl)ccc2OC)cc1OC	0.8%
33	O=C(NC1CCCCC1)c1cccnc1C(=O)O	2.5%
34	Nc1nc(-c2ccc3c(c2)CCCC3)cs1	-28.6%
35	O=C(c1ccco1)N1CCN(C(c2ccc(F)cc2)c2nnnn2CC2CCCO2)CC1 (stereo not drawn)	7.7%
36	O=C(CCC(=O)N1CCN(S(=O)(=O)c2ccccc2)CC1)c1cccs1	-5.6%
37	CCc1nnc(NC(=O)C2CCN(C(=O)NC3CCCCC3)CC2)s1	0.2%
38	COc1ccc(Nc2nc(C(=O)NCCCN3CCOCC3)cs2)cc1	1.1%
39	Cc1cccc(OC(C)C(=O)N(Cc2cccs2)C2CCS(=O)(=O)C2)c1C (stereo not drawn)	8.4%
40	COC(=O)C/C=C\[C@@H](C)[C@@H](/C=N\OCC[C@H]1C=C[C@H](OC(C)=O)[C@@H](COC(C)=O)O1)NS(=O)(=O)c1ccc(C)cc1	-0.1%[11.4 µM]
41	O=C(NC1CCCCC1)C1CC(O)CN1C(=O)OCc1ccccc1 (stereo not drawn)	1.5%
42	O=C(NC(c1ccccc1)c1ccccc1)C1CCCN(S(=O)(=O)c2cnc[nH]2)C1 (stereo not drawn)	0.7%
43	COC(=O)CSc1nnc(-c2ccc(OC)cc2OC)o1	-0.6%
44	CC1Cc2nc(SCC(=O)Nc3ccc4c(c3)OCCO4)n(C)c(=O)c2S1 (stereo not drawn)	1.9%
45	CN(C)c1cc[n+](Cc2ccccc2)cc1	9.8%
46	Cc1nc2nc3c(c(=O)n2[nH]1)CCC3	3.2%
47	Cc1nc2nc[nH]n2c(=O)c1NC(=O)CC12CC3CC(CC(C3)C1)C2	11.5%
48	CCC[C@@H]1C[C@@]1(CCC)C(NC(=O)c1ccccc1)c1cccc(Cl)c1 (stereo partly drawn)	11.1%
49	CCOC(=O)C1=C(C)Nc2nc(SC)nn2C1c1ccc(C(=O)OC)cc1 (stereo not drawn)	?
50	CCCOC(=O)c1ccc(NC(=O)C2C3C=CC(O3)C2C(=O)O)cc1 (stereo not drawn)	-10.1%
51	N#Cc1cc2c(nc1SCC(=O)N1CCCCC1)CCCC2	3.3%
52	O=C(CC(c1ccccc1)c1cc(Br)ccc1O)NCCN1CCOCC1 (stereo not drawn)	2.6%
53	O=C(Nc1ccc(Cl)c(C(F)(F)F)c1)C1CCCN(S(=O)(=O)c2cnc[nH]2)C1 (stereo not drawn)	0.8%
54	O=P(O)(CCc1ccncc1)CN1CCCCC1	5.5%
55	Cc1cc(C)n(-c2ncnc3sc4c(c23)CCCC4)n1	25.1µM*
56	CCC(C)(C)n1nnnc1C(c1ccc2ncccc2c1)N1CCN(c2nc3ccccc3s2)CC1 (stereo not drawn)	8.4%

Remaining list, next part:
nr	Molecule	HSD17B inh
57	CCc1nnc(NC(=O)c2cccc(C(=O)Nc3nnc(CC)s3)n2)s1	-10.1%
58	COCCn1cc(C(=O)NCc2cccs2)c2c3ccccc3n(C)c2c1=O	25.1µM*
59	C/C(CCC(=O)OC[C@@H]1O[C@H](C#Cc2ccccc2)C=C[C@@H]1Oc1ccc(C)cc1)=N/O[C@@H](C)c1cn([C@H](CO)Cc2ccccc2)nn1	-1.1%&3.2%[11.4 µM]
60	CCOC(=O)C1CCCN(C(=O)CN2CCN(Cc3ccc(Cl)cc3)C2=O)C1 (stereo not drawn)	5.6%
61	O=C(C1CCC(Cn2c(=O)[nH]c3ccccc3c2=O)CC1)N1CCN(c2ccccc2)CC1 (stereo not drawn)	?
62	COc1ccc2oc(-c3ccccc3)c(C(=O)N3CCOCC3)c2c1	31.6µM*
63	O=c1c2ccccc2nc(-c2ccco2)n1/N=C/c1ccco1	4.5%
64	Cc1cc(Nc2ccc(Br)cc2F)n2ncnc2n1	4.0%
65	COc1cc(C)nc(N2CCCC(C(=O)Nc3cccc(Cl)c3C)C2)n1 (stereo not drawn)	-3.5%
66	COc1cccc(N(CC(=O)Nc2cccc(F)c2)S(C)(=O)=O)c1	3.9%
67	O=C(Nc1ccncc1)C1(c2ccccc2)CCCC1	-0.9%
68	CCOC(=O)N1CCN(C(=O)C2CC(=O)N(c3ccc(OC)cc3)C2c2ccc(OC)cc2)CC1 (stereo not drawn)	7.3%
69	c1ccc(CNc2cc(-c3ccoc3)ncn2)cc1	?
70	COc1ccccc1CN1CCC2(CC1)CCN(C(=O)c1cccn1C)CC2	-2.1%
71	Cc1noc(C)c1S(=O)(=O)N(CC(=O)NCc1ccc(Cl)cc1)c1ccc2c(c1)OCO2	4.3%
72	COC(=O)[C@](C)(N)Cc1ccc(O)cc1	25.1µM*
73	O=C(Nc1ccc(N2CCN(c3ccc(O)cc3)CC2)cc1)Oc1ccccc1	-22.9%
74	Cc1ccc(CC23CN4CCN(CC(C4)C2O)C3)c(C)c1 (stereo not drawn)	-4.9%
75	CCNC(=O)c1cc2c(=O)n3cccc(C)c3nc2n1C	2.51µM*
76	CN(C)c1ccc(-c2ccc3ncnc(N(C)Cc4ccco4)c3c2)cc1	?
77	O=C(C(c1ccccc1)c1ccccc1)N(Cc1ccco1)C1CCS(=O)(=O)C1 (stereo not drawn)	-2.4%
78	CCCn1c(NC(=O)c2ccc(C)cc2)nc2ccccc21	86.2%[activator]
79	CC(C)NC(=O)N1CC[C@@]2(CCCN(C(=O)c3cccn3C)C2)C1	-1.7%
80	COc1ccc(C(O)C(CN2CCOCC2)c2ccccc2)cc1F (stereo not drawn)	1.7%
81	COc1ccc(OC)c(NC(=O)C2CCN(c3ncccn3)CC2)c1	-18.1%
82	CCC(c1nnnn1Cc1ccco1)N(CCN1CCOCC1)Cc1cc2cc(C)ccc2[nH]c1=O (stereo not drawn)	0.4%
83	CCCCn1ccnc1C(=O)c1ccc(S(=O)(=O)N(CCOC)CCOC)cc1	5.3%
84	Cc1ccc(S(=O)(=O)N2CCC(C(=O)N[C@@H](C)C(=O)NCc3ccccc3)CC2)cc1	6.7%
85	COc1ccc(Cl)cc1N1C(=O)C2CCCN2C1c1sccc1C (stereo not drawn)	8.1%
86	CCc1c(C)n([O-])c2c([n+]1=O)CCC2	3.2%
87	O=C(N1CCOCC1)N1CCN(c2ccccn2)CC1	31.6µM*
88	Clc1ccc(Cn2c(CN3CCCC3)nc3ccccc32)cc1	-5.1%[25.6 µM]
89	CCOC(=O)N/N=C1/C[C@@H](O)[C@@H](O)[C@@H]2[C@@H]3C(=O)N(C[C@@H]4CCCO4)C(=O)[C@H]3CC[C@@H]12	5.5%[11.4 µM]
90	COc1ccc(C(=O)Nc2cccc(C(C)=O)c2)cc1S(=O)(=O)N1CCOCC1	-5.9%
91	CC(=O)N[C@@H](CC(=O)O)C(=O)N[C@@H](CCC(=O)O)C(=O)O	0.4%
92	COc1ccc(-c2csc(N3CCC(C(N)=O)(N4CCCCC4)CC3)n2)cc1	-3.0%
93	CCOC(=O)C1CCN(C(=O)COc2ccc(N(C)S(=O)(=O)c3cccs3)cc2)CC1	4.5%
94	CC(C)Cn1c(N)c(C(=O)COC(=O)C2=COCCO2)c(=O)n(C)c1=O	3.3%
95	Cc1nn(C)c(C)c1S(=O)(=O)N(CC(=O)Nc1ccc2c(c1)OCO2)c1ccc(C(C)C)cc1	5.1%
96	c1cc(-c2noc(CCC3CCCC3)n2)ccn1	7.2%
97	COc1ncc2nc(-c3ccc(F)cc3)c(=O)n(C)c2n1	20µM*
98	OC1(c2ccc(Cl)cc2)CCN(Cc2c[nH]c3ccccc23)CC1	14.6%
99	c1ccc(SCCc2ccncc2)cc1	1.9%[11.4 µM]
100	CCOC(=O)C1CCN(C/C=C/c2ccccc2OC)CC1	-1.6%
101	COCCNC(=O)C(C)OC(=O)c1nsc(Cl)c1Cl (stereo not drawn)	-0.3%
102	Cn1c(=O)c(=O)n(C)c2cc(S(=O)(=O)Nc3ccc4c(c3)OCCO4)ccc21	-5.2%
103	COC(=O)c1sccc1NC(=O)c1ccco1	?
104	O=C(O)CCC(=O)c1ccc[nH]1	7.8%[11.4 µM]
105	COc1cc(C2=NOC(C(=O)NCc3ccc(F)cc3)C2)cc(OC)c1OC (stereo not drawn)	2.5%
106	Cc1nc(N2CCC3(CC2)OCCO3)c2nnn(Cc3ccccc3F)c2n1	-15.7%
107	COC(=O)c1ccc(C(NC(=O)OCc2ccccc2)/C(C)=C/[C@@H](C)C(=O)NCc2cc(F)cc(F)c2)cc1 (stereo partly drawn)	5.7%
108	O=C1c2ccccc2C(=O)N1CCCn1c(=O)oc2ccccc21	4.4%
109	O=C(CN1C(=O)COc2ccccc21)N(Cc1cccnc1)Cc1ccccc1F	6.6%
110	CC1CCCC(NC2CCCCNC2=O)C1 (stereo not drawn)	5.3%
111	CN(C)Cc1cc(CCNC(=O)c2ccc(Cl)cc2)ccc1O	0.5%
112	CC(C)NCC(O)COc1ccc(COCCOC(C)C)cc1 (stereo not drawn)	-7.0%

New compounds follow
nr	Molecule	HSD17B inh
113	CCOc1ccc(NC(=O)c2cccnc2C(=O)O)cc1	-0.7%
114	COCCN(C(=O)C1CC1)c1nnc(-c2cccc(C)c2)s1	4.6%
115	COc1ccccc1OCC(=O)NCc1cccs1	3.4%
116	CC(=O)n1nc2nc(C)cc(C)c2c1N	1.7%
117	CCOC(=O)Cc1csc(SCC(=O)Nc2cccc(C#N)c2)n1	1.7%
118	CC(C)Oc1ccc(-c2cc(=O)[nH]c(=O)[nH]2)cc1	-2.4%
119	C=CCn1c(COC)nnc1SCC(=O)c1ccc(F)cc1	-8.0%
120	Cc1ccc(C(c2nnnn2CCc2ccccc2)N2CCSCC2)cc1 (stereo not drawn)	-6.2%
121	CCN1CCN(c2ncnc3c2sc2nc(N4CCOCC4)c4c(c23)CCC4)CC1	31.6µM*
122	O=C(NCCC1=CCCCC1)C1CCCN(S(=O)(=O)c2ccc(F)cc2)C1 (stereo not drawn)	-4.8%
123	CC(C)NC(=O)c1ccc(CS(=O)(=O)c2ccc(Br)cc2)o1	2.1%

Compound activity (PubChem)

A portion of the library, so the mix of outcomes need not match the whole.
